Source: PubChem (National Center for Advancing Translational Sciences (NCATS))
Resorufin fluor = qHTS Assay for Spectroscopic Profiling in Resorufin Spectral Region. Compound fluorescence, resorufin region 547/598 nm, buffer; active compounds read high. max dye-equivalent concentration, M. 0.04% of 59,000 active; active = above 10 nM dye equivalent; inconclusive = 1 to 10 nM; inactive = 1 nM or less; a few of its hits are not listed in these tables; also: highest value over a series up to 38 µM
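Compounds in 100 mM Tris buffer, pH 8.0, incubated 15 min at room temperature, then read with 547 nm excitation and 598 nm emission filters. Fluorescence was converted to dye-equivalent concentration using an on-plate six-point resorufin standard curve.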
TSHR ag = qHTS Assay for Agonists of the Thyroid Stimulating Hormone Receptor | 0.48% of 73,000 active | Thyrotropin receptor (Homo sapiens), P16473 | Potency, µM (doses to about 57.1 µM), for the others: at the highest dose activation, most hits filed as activators | HEK293-CNG-TSHR cells (CNG channel as cAMP sensor), membrane potential dye, cAMP; active = well fitted activation curve of enough size with the parental cells flat; inconclusive = any curve in the parental cells; inactive = parental cells flat and receptor cells flat or falling; also: potency is read from the fitted curve at half-maximal effect; % of control where 0% means no effect; weak receptor curves with flat parental cells got no call and are not listed
Target sequence (P16473 whole entry, looked up): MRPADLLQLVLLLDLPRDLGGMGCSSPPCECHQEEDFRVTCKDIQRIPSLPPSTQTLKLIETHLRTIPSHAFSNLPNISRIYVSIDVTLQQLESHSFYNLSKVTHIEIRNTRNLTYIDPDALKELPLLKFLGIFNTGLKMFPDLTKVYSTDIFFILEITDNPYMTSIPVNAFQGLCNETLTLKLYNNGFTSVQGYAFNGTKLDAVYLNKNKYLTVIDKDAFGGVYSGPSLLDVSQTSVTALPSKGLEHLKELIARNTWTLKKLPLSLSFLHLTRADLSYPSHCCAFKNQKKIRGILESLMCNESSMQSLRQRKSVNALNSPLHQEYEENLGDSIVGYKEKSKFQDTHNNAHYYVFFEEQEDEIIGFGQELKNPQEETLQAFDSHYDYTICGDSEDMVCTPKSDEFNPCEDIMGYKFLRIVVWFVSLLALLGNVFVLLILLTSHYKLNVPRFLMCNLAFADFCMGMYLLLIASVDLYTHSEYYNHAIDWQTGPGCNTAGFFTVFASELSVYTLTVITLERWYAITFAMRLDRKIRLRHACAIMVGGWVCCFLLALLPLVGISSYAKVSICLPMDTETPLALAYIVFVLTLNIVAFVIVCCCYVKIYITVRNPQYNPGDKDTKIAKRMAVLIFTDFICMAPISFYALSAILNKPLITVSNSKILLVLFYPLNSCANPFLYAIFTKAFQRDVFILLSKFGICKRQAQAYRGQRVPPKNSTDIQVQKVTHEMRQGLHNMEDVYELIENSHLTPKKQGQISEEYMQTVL
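HEK 293 cells stably expressing TSHR and a modified CNG channel, with CNG-only parental cells as counterscreen, were preloaded 60 min at room temperature with membrane potential dye containing 100 uM RO 20-1724. Compound exposure was 30 min, and depolarization was read as fluorescence at 590 nm.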
AID923 = qHTS Assay for Allosteric/Competitive Inhibitors of Caspase-1: Spectroscopic Profiling in AFC Spectral Region. compound fluorescence, AFC spectral region (405/520 nm); almost no hit is shown here. Potency, µM (top dose mostly 57.5 µM), for the others: at the highest dose fluorescence increase, hits mostly activators. 1.1% of 75,000 active. AID 923, 2007; active = well fitted activation curve with a large enough effect; inconclusive = small, poorly fitted or top-dose-only effect;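 also: potency is read from the fitted curve at half-maximal effect; 0% is about no effect; scaled to a free AFC standard on each plate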
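Titrations up to 57 uM read every 20 sec for 3 min (405/520 nm) with 50 nM caspase 1 and 5 uM Ac-WEHD-AFC, pH 7.5 HEPES buffer. Fluorescence-vs-time intercept gave baseline, scaled against on-plate AFC standard.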
A488 autofl = qHTS Assay for Spectroscopic Profiling in A488 Spectral Region; AID 591, 2007; max dye equivalency, M; compound autofluorescence, A488 spectral region, dye equivalency; active compounds read high; 0.1% of 59,000 active; active = above 10 nM dye equivalent; inconclusive = 1 to 10 nM; inactive = 1 nM or less; about half of its hits are not listed in these tables;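 also: highest value over a series up to 38 µM; compound alone in buffer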
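Readout is A488 dye-equivalent concentration, calibrated by a per-plate six-point Alexa 488 series. Compounds in 100 mM Tris buffer pH 8.0 were incubated 15 min at room temperature. Plates were imaged using 480 nm excitation/540 nm emission filters.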
A647 fluor = qHTS Assay for Spectroscopic Profiling in A647 Spectral Region; Compound fluorescence, A647 channel (570/671 nm), Tris buffer; max dye-equivalent concentration, M; 59,000 tested, under 10 active; AID 592, 2007; active means above 1 µM dye equivalent; inconclusive means 0.1 to 1 µM; inactive means 0.1 µM or less;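 also: values scaled relative to a standard on each plate; highest value over a series up to 38 µM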
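Tris 100 mM pH 8.0; cpd + A647 stds pin-transferred; 15 min RT; CCD imager, ex 570/em 671. Output = A647-equivalent conc. per cpd conc.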
* = called active by the depositor; i = inactive; ? = inconclusive; . = no result given; [ ] = remark or other dose. This is a subset; rates above refer to the full screens.

Sequence of screens – Resorufin fluor	TSHR ag	AID923	A488 autofl	A647 fluor
1. Cn1c(N)c(C(=O)COC(=O)C2(c3cccc(F)c3)CCCC2)c(=O)n(C)c1=O
    i	30%	0.4%	i	1e-09
2. COc1ccc2[nH]c3nc(SCc4nnc(-c5ccc(C)cc5)o4)nnc3c2c1
    i	13%	-2.1%	i	1e-09
3. CCOC(=O)C1C(=O)OC2(CCCC2)C1C(=O)OCC (stereo not drawn)
    i	3%	-0.8%	i	1e-09
4. COc1ccc(NC(=O)CCc2nc(-c3ccc(C)cc3)no2)cc1Cl
    i	-3%	-1.2%	i	1.4e-08
5. CC1(C)CC(=O)C2=C(C1)N(Cc1ccco1)C(=O)C2(NC(=O)c1cccnc1)C(F)(F)F (stereo not drawn)
    i	.	.	i	1e-09
6. COC(=O)c1[nH]c2ccc(F)cc2c1NS(=O)(=O)c1ccc(OC)cc1OC
    i	-8%	-0.7%	i	5.8e-09
7. N#Cc1nc(COc2cccc(Cl)c2)oc1N1CCN(c2ccccc2)CC1
    i	?	0.8%	i	1e-09
8. CCCCn1c(SCC(=O)NC(C)(C)C)nnc1-c1ccco1
    i	3%	-3.0%	i	2e-08
9. CCOc1ccc(NS(=O)(=O)c2ccc3c(c2)CCN3C(=O)CCC(=O)O)cc1
    i	8%	2.7%	i	3e-08
10. C=CCSc1n[nH]c(-c2ccc(OCCCC)cc2)n1
    i	6%	0.9%	i	9.8e-09
11. Cc1ccc(NC(=O)NC2(C(=O)NCc3ccco3)CCCCC2)cc1
    i	4%	0.4%	i	1e-09
12. CCC(=O)NC(C)C(c1cccs1)N1CCOCC1 (stereo not drawn)
    i	?	4.0%	i	1e-09
13. CCc1nnc(NC(=O)C2CCN(c3nccc(C)n3)CC2)s1
    i	1%	0.8%	i	1e-09
14. COC(=O)c1c(NC(=O)CSc2nnc(Cn3nnc4ccccc43)n2C)sc(C)c1C
    i	0%	-0.4%	i	1e-09
15. CC(=O)Nc1cccc(OCC(O)Cn2cnc3ccccc32)c1 (stereo not drawn)
    i	-2%	1.8%	i	2.5e-08
16. Cc1ccc(S(=O)(=O)N2CCN(C(=O)CN3CCOCC3)C2C(C)C)cc1 (stereo not drawn)
    i	4%	1.7%	i	3.1e-09
17. N#Cc1c2n(c3c(=O)n(Cc4ccccc4Cl)cnc13)CCCC2
    i	1%	1.4%	i	5.1e-08
18. O=S(=O)(c1cccc2cccnc12)N1CCN(Cc2ccc3c(c2)OCO3)CC1
    .	14%	0.6%	.	.
19. CCOC(=O)CNC(=O)c1ccccc1Br
    i	1%	1.5%	i	2.7e-08
20. CCCCCCn1c(N2CCC(C(N)=O)CC2)nc2c1c(=O)[nH]c(=O)n2C
    i	2%	1.5%	i	2.6e-08
21. O=C(COC(=O)CCc1ccc(S(=O)(=O)N2CCCCC2)cc1)Nc1ccc2c(c1)OCO2
    i	1%	0.7%	i	8.8e-09
22. CCOC(=O)CNC(=O)c1sc(NC(=O)c2ccccc2F)nc1C
    i	1%	1.1%	i	2.4e-09
23. c1ccc(CSc2nnc(SCc3ccccn3)s2)nc1
    i	.	.	i	7.9e-09
24. CC1C(=O)C(C)C(c2cccs2)NC1c1cccs1 (stereo not drawn)
    i	6%[11.4 µM]	-1.0%	i	1e-09
25. COc1ccc(OC)c(NC(=O)Cn2cc(C(=O)c3ccco3)c3ccccc32)c1
    i	16%	2.0%	i	2.4e-08
26. O=C(O)CCc1ccc(-c2ccc(Cl)cc2)n1Cc1ccco1
    i	-4%	-0.6%	i	7.2e-09
27. Cc1noc(C)c1-c1nc(N2CCN(C)CC2)c2ccccc2n1
    i	?	0.1%	i	9.5e-09
28. Cc1cc(C(=O)N[C@@H](c2ccccc2)[C@]2(C)C[C@H]2[C@@H](C)C(=O)Nc2ccc3ccccc3c2)no1
    .	?	-1.1%	.	.
29. COc1nc2c(s1)C(=O)NCCC2
    i	2%[11.4 µM]	-0.9%	i	2.5e-08
30. Cc1c(NC(=O)COc2ncnc3ccccc23)c(=O)n(-c2ccccc2)n1C
    i	7%	-0.5%	i	2.5e-09

In the list so far, 4 have an NH in an aromatic ring:
Sequence of screens – Resorufin fluor	TSHR ag	AID923	A488 autofl	A647 fluor
2. COc1ccc2[nH]c3nc(SCc4nnc(-c5ccc(C)cc5)o4)nnc3c2c1
    i	13%	-2.1%	i	1e-09
6. COC(=O)c1[nH]c2ccc(F)cc2c1NS(=O)(=O)c1ccc(OC)cc1OC
    i	-8%	-0.7%	i	5.8e-09
10. C=CCSc1n[nH]c(-c2ccc(OCCCC)cc2)n1
    i	6%	0.9%	i	9.8e-09
20. CCCCCCn1c(N2CCC(C(N)=O)CC2)nc2c1c(=O)[nH]c(=O)n2C
    i	2%	1.5%	i	2.6e-08

The list goes on.
Sequence of screens – Resorufin fluor	TSHR ag	AID923	A488 autofl	A647 fluor
31. Cn1c(=O)c2c(nc(CN3CCOCC3)n2CC(=O)c2ccccc2)n(C)c1=O
    i	25%	-0.2%	i	1.2e-08
32. CC(=O)NC(CCS(C)(=O)=O)C(=O)Nc1ccc2c(c1)OCCO2 (stereo not drawn)
    i	-11%	-0.9%	i	4.5e-08
33. O=C(Nc1ccccc1Oc1ccccc1)c1ccc(Br)o1
    .	?	1.0%	.	.
34. O=C(Nc1nncs1)C1(c2ccccc2)CCCC1
    i	1%	-0.2%	i	4.8e-08
35. CCN1C(=O)/C(=C\N2CCN(c3cccc(Cl)c3)CC2)SC1=S
    i	-1%	6.6%	i	3.9e-08
36. C=CCn1c(CC(=O)Nc2cccc(OC)c2)nnc1SCC(=O)NC1CCCCC1
    i	.	0.6%	i	1.8e-09
37. [O-][N+]1=C(c2cccs2)CN(O)C1
    i	1%	-2.3%	i	1.5e-08
38. [O-][n+]1onc2c1CCc1c-2nc(-c2ccccc2)n1OCc1ccccc1
    i	?	0.9%	i	3.7e-08
39. CCOC(=O)c1cccc(NC(=O)CCn2cccc2)c1
    .	5%	1.2%	.	.
40. CCOC(=O)Cn1nnc(-c2ccc(S(C)(=O)=O)cc2)n1
    i	-3%	-2.0%	i	1.8e-09
41. Cc1cc(-c2nnc(SCC(=O)N3C(C)CCCC3C)o2)no1 (stereo not drawn)
    i	-6%	-2.6%	i	1e-09
42. O=CN1CCN(C(=O)CN2C(=O)c3ccccc3C2=O)CC1
    i	.	.	i	2.8e-08
43. O=C(COc1ccc(-c2ccccc2)cc1)N1CCN(C(=O)c2cccnc2)CC1
    .	4%	-0.6%	.	.
44. COc1ccc2cc(CN(CCO)C(=O)c3ccccc3F)c(=O)[nH]c2c1
    i	-1%	1.8%	i	3.3e-08
45. CN(C)CCN1CC(C(=O)O)CC1=O (stereo not drawn)
    i	-2%	-0.6%	i	4.8e-09
46. O=C(c1ccncc1)N1CCC2(CCCN(Cc3ccccc3)C2)CC1
    i	?	0.0%	i	1.5e-08
47. CCc1cc(=O)oc2cc(C)c(CN3CCCC3)c(O)c12
    i	.	.	i	1e-09
48. C=CCn1c(CCNC(=O)C(C)(C)C)nc2ccccc21
    i	4%[11.4 µM]	-1.6%	i	1.8e-09
49. CC(=O)c1ccc(N2CCCCCC2)c(F)c1
    .	25%[11.4 µM]	1.2%	.	.
50. Clc1ccc(-n2nnnc2-c2ccccc2)cc1
    i	10%	-2.5%	i	5.5e-08
51. Cn1cc(SCC(=O)NCC2CCCO2)c2ccccc21 (stereo not drawn)
    .	?	1.6%	.	.
52. COc1ccc(OC)c(C(=O)c2oc3ccccc3c2NC(C)=O)c1
    i	.	-1.0%	i	1e-09
53. O=C(O)c1cc(-c2ccco2)nc2ccc(Br)cc12
    i	-3%[11.4 µM]	4.1%	i	1e-09
54. COCCNc1nc(SCC(=O)N2CCN(c3ccccc3)CC2)nc2ccccc12
    i	5%	0.6%	i	7.3e-09
55. CCCSc1nc(C)c(CC(=O)O)c(=O)[nH]1
    i	.	.	i	1e-09
56. Cc1onc(-c2ccccc2)c1C(=O)N1CCN(S(=O)(=O)c2ccc3c(c2)OCCO3)CC1
    i	-3%	-0.5%	i	5.4e-08
57. CCNc1nc(Oc2ccc(=O)[nH]n2)nc(SC)n1
    i	8%	2.3%	i	1e-09
58. Cc1noc(C)c1COC(=O)c1cccc(S(=O)(=O)N2CCCCCC2)c1
    i	?	0.7%	i	2.9e-08
59. c1ccc2sc(N3CCN(Cc4nnnn4CC4CCCO4)CC3)nc2c1 (stereo not drawn)
    i	?	0.6%	i	3.8e-09
60. CC(=O)c1cc2c(cc1NC(=O)Nc1cccc(Cl)c1)OCCO2
    i	12%	-3.9%	i	1.2e-08

Two records drawn at random from those above, as already listed:
Sequence of screens – Resorufin fluor	TSHR ag	AID923	A488 autofl	A647 fluor
41. Cc1cc(-c2nnc(SCC(=O)N3C(C)CCCC3C)o2)no1 (stereo not drawn)
    i	-6%	-2.6%	i	1e-09
46. O=C(c1ccncc1)N1CCC2(CCCN(Cc3ccccc3)C2)CC1
    i	?	0.0%	i	1.5e-08

(list continues)
Sequence of screens – Resorufin fluor	TSHR ag	AID923	A488 autofl	A647 fluor
61. N#Cc1cccc(-c2cc(NCc3cccs3)ncn2)c1
    i	3%	-2.5%	i	4.7e-08
62. COc1ccc(OC)c(NC(=O)CSc2ncccc2C(=O)O)c1
    i	-3%	1.0%	i	1.2e-09
63. O=C(c1ccccc1)N(Cc1cccs1)C1CCS(=O)(=O)C1 (stereo not drawn)
    i	5%	-0.9%	i	5.1e-09
64. CC(C)COC(=O)N(C)c1ccc(C(O)(C(F)(F)F)C(F)(F)F)cc1
    i	-3%	-0.1%	i	1e-09
65. CC(C)(C)c1cc(CN2CCCC(O)C2)c(O)c(C(C)(C)C)c1 (stereo not drawn)
    .	10%[11.4 µM]	-0.2%	.	.
66. CC(=O)Nc1cc(CN2CCCCC2)c(O)c2ncccc12
    i	-2%[11.4 µM]	-3.8%[11.5 µM]	i	1.6e-08
67. CC(C)OC(=O)CSc1nnc(-c2ccccn2)n1C
    i	-9%	2.0%	i	2.8e-08
68. COCC(=O)N1CCC[C@@]2(CCN(Cc3ccccc3OC)C2)C1
    i	11%	6.7%	i	1.5e-09
69. Cc1cccc(NC(=O)CSc2nnc(-c3ccc(S(=O)(=O)N4CCOCC4)cc3)n2C)c1
    i	2%	-1.3%	i	1.2e-08
70. Cc1cc2c(ccc3[nH]onc32)n1
    i	-13%	17%	i	2.5e-08
71. O=C(CCCc1ccccc1)NCCCN1CCOCC1
    .	-9%	-0.6%	.	.
72. O=C1c2ccccc2C(=O)N1CCCc1nc(-c2ccccn2)no1
    i	-2%	0.2%	i	2e-08
73. CCCS(=O)(=O)N1CCCC(C(=O)NCCc2ccc(Cl)cc2)C1 (stereo not drawn)
    i	12%	1.6%	i	1e-09
74. COc1ccccc1C1CC(c2ccc(Cl)cc2)Nc2ncnn21 (stereo not drawn)
    i	?	0.0%	i	1e-09
75. CCn1c(SCC(=O)Nc2nccs2)nnc1-c1ccc(C)cc1
    i	2%	-2.0%	i	4.4e-09
76. OC1(c2cccnc2)CCN(Cc2nnnn2C2CCCCC2)CC1
    i	4%	0.4%	i	1.8e-08
77. O=C(NCc1ccccn1)c1ccc(COc2ccc(Cl)cc2)o1
    i	26%	1.8%	i	3.7e-08
78. CC(NC(=O)c1ccccc1NC(=O)c1ccco1)c1ccccc1 (stereo not drawn)
    i	.	1.7%	i	1.9e-09
79. COc1ccc(OC)c(CN(CCCN2CCOCC2)S(=O)(=O)c2ccc(NC(C)=O)cc2)c1
    i	-12%	2.2%	i	1e-09
